D2 PAM: positive allosteric modulators of human D2 dopamine receptor. P14416. DiscoveRx D2 beta-arrestin cells, luminescence, 90 min; 100% = 57 uM dopamine signal. potentiation, % (test concentration not listed). 0.23% of 360,000 active; active = potentiation of 50% or more; inconclusive = 30% to 50%; inactive = 30% or less;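 further: compound concentration not given in the record; tested on top of an EC20 dose of dopamine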
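D2 cells co-treated with compound plus 50 nM dopamine (EC20) for 90 min at 37 deg C to detect potentiation. Beta-arrestin recruitment was read as enzyme-fragment luminescence after 1 h at ambient temperature. Full response was set by 57 uM dopamine.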
Six1-Eya2 blk: Six1/Eya2 interaction inhibition. Q15475+O00167. 0.56% of 360,000 active. AlphaScreen GST-Six1/His-Eya2 binding, biochemical; active compounds read low; control for the full effect not named in the record. activity change, % (no concentration beside the values). AID 651725; in the data active = activity change below about -65%; inconclusive = about -30% to -65%; inactive = above about -30%; further: on the % scale 0 is the no-effect control and ±100 the full control effect
Target sequence (O00167 whole entry, looked up): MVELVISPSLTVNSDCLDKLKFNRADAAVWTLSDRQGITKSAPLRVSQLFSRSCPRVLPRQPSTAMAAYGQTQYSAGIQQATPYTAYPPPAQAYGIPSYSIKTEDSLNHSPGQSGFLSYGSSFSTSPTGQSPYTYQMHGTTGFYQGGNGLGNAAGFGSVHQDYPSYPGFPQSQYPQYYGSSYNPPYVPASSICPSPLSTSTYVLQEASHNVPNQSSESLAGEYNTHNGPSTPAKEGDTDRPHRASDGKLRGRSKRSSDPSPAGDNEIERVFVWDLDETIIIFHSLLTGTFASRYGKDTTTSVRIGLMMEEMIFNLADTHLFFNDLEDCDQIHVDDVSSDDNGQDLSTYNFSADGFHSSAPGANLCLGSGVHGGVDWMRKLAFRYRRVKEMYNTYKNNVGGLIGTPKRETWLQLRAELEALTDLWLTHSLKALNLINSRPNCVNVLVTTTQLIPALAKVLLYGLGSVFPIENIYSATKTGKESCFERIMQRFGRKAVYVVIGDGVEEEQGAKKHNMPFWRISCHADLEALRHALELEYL
Target sequence (Q15475 whole entry, looked up): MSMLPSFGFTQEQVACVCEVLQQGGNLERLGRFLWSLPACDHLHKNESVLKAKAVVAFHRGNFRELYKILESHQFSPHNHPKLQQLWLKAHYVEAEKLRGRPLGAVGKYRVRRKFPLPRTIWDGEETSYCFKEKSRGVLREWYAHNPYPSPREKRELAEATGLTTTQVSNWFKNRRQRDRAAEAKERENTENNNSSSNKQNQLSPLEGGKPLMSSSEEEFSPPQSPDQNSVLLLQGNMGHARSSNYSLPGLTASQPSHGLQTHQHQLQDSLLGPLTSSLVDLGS
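AlphaScreen with GST-Six1 and His-Eya2 (5X mix: 250 nM and 500 nM), glutathione donor and nickel acceptor beads; buffer 50 mM Tris pH 8.0, 300 mM NaCl, 1 mM TCEP; 1 h at 37 C in the dark.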
TRPV1 PAM: enhances activation of the human vanilloid receptor TRPV1 | TRPV1-expressing cells, Fluo-8 calcium influx, capsaicin EC20 potentiation; host cell line not named in the record; control for the full effect not named in the record | potentiation, % at 8.33 µM | AID 540277 | 0.02% of 320,000 active; active means potentiation above 80%; inconclusive means 30% to 80%; inactive means below 30%; further: 0% is about no effect
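Cells expressing TRPV1 were dye-loaded with Fluo-8 and read kinetically: 10 s baseline, 3 min after compound (agonist portion), then 2 min after EC20 capsaicin (allosteric enhancer portion). Calcium-bound dye fluorescence at 480/520 nm.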
TRPML1 ag: human mucolipin-1 channel agonism | activation, % (concentration not given with the values) | Q9GZU1 | 0.12% of 410,000 active | TRPML1-expressing cells, Ca2+ dye fluorescence, FDSS; host cell line not named in the record; reference of the full effect not given here; in the data active = activation above about 50%; inconclusive = about 30% to 50%; inactive = below about 30%; further: 0% is about no effect; the text of the record puts the active cut at 80%
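Tetracycline-induced TRPML1-DL cells are seeded and incubated overnight before loading with a no-wash Ca2+ dye and quencher. Agonist activity is taken from the 110 s fluorescence read following compound pin-transfer on an FDSS, before EC80 54-4 challenge.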
CtBP-E1A blk: blocks the CtBP interaction with E1A; AlphaScreen GST-E1A/His-CtBP binding, 1536-well; active compounds read low; control for the full effect not named in the record; activity change, % (test concentration not listed); 0.49% of 340,000 active; in the data active means activity change below about -65%; inconclusive means about -30% to -65%; inactive means above about -30%; further: on the % scale 0 is the no-effect control and ±100 the full control effect
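Homogeneous bead-based format: GST-tagged E1A captured on glutathione donor beads, His-tagged CtBP on nickel acceptor beads; compounds precede bead addition by 2 h at 37 °C.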
TRPML1 inh: blocks the human TRPML1 channel | Q9GZU1 | TRPML1-inducible cells, Ca2+ dye fluorescence, FDSS; active compounds read low; inhibition of EC80 agonist-evoked calcium signal | activity change, negative = inhibition, % (test concentration not listed) | 0.02% of 390,000 active | AID 624415; in the data active means activity change below about -50%; inconclusive means about -30% to -50%; inactive means above about -30%;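 further: stimulus is agonist 54-4 at its EC80 concentration; on the % scale 0 is the no-effect control and ±100 the full control effect; compound concentration not given in the record; the text of the record puts the active cut at -80%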
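Tet-induced TRPML1-DL cells loaded with Ca8 no-wash calcium dye were read kinetically on FDSS. Compound addition was followed by EC80 agonist 54-4 (4 uM final); inhibition was read over 110 s.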
* = called active by the depositor; ? = inconclusive; · = no result given.

item | Compound | TRPML1 ag | TRPV1 PAM | D2 PAM | CtBP-E1A blk | Six1-Eya2 blk | TRPML1 inh
1 | COc1ccc([N+](=O)[O-])cc1NC(=S)NC(NC(C)=O)C(Cl)(Cl)Cl (centres undefined) | 0.8 | 5 | -27 | -3 | 1 | -3
2 | O=C(Nc1cccnc1)c1ccc2c(c1)C(=O)N(Cc1cccnc1)C2=O | 0.4 | 21 | -6 | -4 | -2 | -3
3 | COc1cccc(NC(=O)CN(C)C(C)C(=O)Nc2ccc(C#N)cc2)c1 (centres undefined) | 0.3 | 8 | -1 | 3 | -25 | -10
4 | CN1c2ccccc2N(C)C1(C)c1ccccc1 | 0.8 | 1 | ? | -17 | -24 | -20
5 | Cc1ccc(N2C(=O)N(CC(=O)Nc3cc(Cl)ccc3C)C(=O)C2C)cc1 (centres undefined) | 3.7 | -19 | 9 | 1 | 0 | 25
6 | CCc1ccc([C@H]2[C@@H]3C(=O)C[C@@H]4C(=O)N(CC)C(=O)[C@@H]4[C@@H]3CN2S(=O)(=O)c2ccc(C)cc2)cc1 | 5.6 | · | 2 | 8 | 9 | ·
7 | CC(C)(C)NC(=O)NC(=O)CSc1nnc(COc2ccccc2Cl)o1 | 0.7 | 0 | -7 | 4 | 3 | -1
8 | COc1ccc(N2CCN(C3CCCN(Cc4cccc(C)c4)C3)CC2)cc1 (centres undefined) | 0.0 | -1 | -22 | -27 | -25 | -8
9 | Cc1ccc(N2C(=O)N(CC(=O)Nc3ccc(F)c(F)c3)C(=O)C2C)cc1 (centres undefined) | 0.0 | -24 | -7 | 6 | -1 | 12
10 | COCCOC1CCN(C(=O)C2CCC(=O)N(CCc3ccccc3)C2)CC1 (centres undefined) | -0.2 | 4 | -2 | 2 | 6 | -10
11 | O=C(CN1CCN(S(=O)(=O)c2ccc(Br)s2)CC1)N1CCc2ccccc21 | -0.5 | · | -28 | -3 | 9 | -2
12 | COc1ccc(C)cc1NC(=O)CSc1ccc(Cl)cc1 | -0.1 | -9 | -13 | 24 | 12 | 13
13 | COCCCNC(=O)CC1C[C@H](C(=O)N2CCOCC2)[C@@]2(CCC3CCCC3)c3[nH]c4ccc(OC)cc4c3CCN2C1=O (some centres undefined) | -0.8 | · | -10 | 5 | -2 | -9
14 | CCCCC1=C([O-])C2N=CC=CC2=[N+](c2ccccn2)C1=O (centres undefined) | -0.7 | -3 | -11 | 5 | -4 | -4
15 | C[C@@]12C(=O)N(c3cccc(F)c3)C(=O)N1[C@H](c1ccc(F)cc1)[C@@H]1C(=O)N(C3CCCCC3)C(=O)[C@@H]12 | -0.4 | -6 | -12 | 2 | 3 | 0
16 | CCNC(=S)N1N=C2c3ccccc3CCC2C1c1ccc(F)cc1 (centres undefined) | 1.4 | -4 | -8 | -9 | -11 | 70
17 | COc1ccc2c(C(=O)CN3CCN(c4ccccc4)CC3)c[nH]c2c1 | 1.5 | 4 | -14 | -2 | 1 | -20
18 | CC(C)(CNS(=O)(=O)c1ccc(F)cc1)CNS(=O)(=O)c1ccc(F)cc1 | -0.6 | 2 | 22 | -4 | -1 | 35
19 | COc1ccc(CNCCC(c2ccc(OC(C)C)cc2)C(C)C)cc1OC (centres undefined) | 1.3 | -14 | -22 | -9 | -1 | -5
20 | CCOc1ccccc1NC(=O)C1CCCN1C(=O)c1cccs1 (centres undefined) | 0.2 | 16 | -3 | 7 | 4 | -5
21 | COc1ccc(-c2cc(C(=O)NC(Cc3c[nH]c4ccccc34)C(=O)O)c(C)o2)cc1OC (centres undefined) | -0.2 | 10 | -14 | -16 | -20 | 0
22 | O=C1OC(c2cccs2)=N/C1=C\c1ccc(-c2ccccc2Cl)o1 | 0.4 | -7 | -17 | ? | ? | 1
23 | CCN1CCN(S(=O)(=O)c2ccc(Cl)c(C(=O)NC(C)c3ccccc3Cl)c2)CC1 (centres undefined) | -0.2 | -2 | -30 | -19 | 6 | 3
24 | Cc1cc2c(cc1C)NC(c1cccnc1)C1=C(CC(C)(C)CC1=O)N2 (centres undefined) | -0.3 | ? | -7 | -3 | 6 | -11
25 | C=CS(=O)(=O)c1sc(Cl)c(N2CCOCC2)c1[N+](=O)[O-] | 7.0 | 0 | -28 | -4 | -9 | 4
26 | CCn1c(SCC(N)=O)nnc1C(C)C | -0.1 | -2 | -5 | -1 | 3 | 28
27 | c1ccc2ncc(-n3ccnc3)cc2c1 | -0.2 | · | 0 | 4 | 7 | ·
28 | CC(C)[C@H](NC(N)=O)C(=O)Nc1cccc(S(=O)(=O)N2CCOCC2)c1 | 0.6 | 1 | -5 | 15 | 3 | 10
29 | CC1(C)CC(NS(=O)(=O)c2ccc(C(C)(C)C)cc2)CC(C)(C)N1 | -0.2 | 3 | -1 | 8 | 3 | 5
30 | COc1ccc(OCC(=O)NCc2nc(-c3ccccc3)no2)cc1 | -0.5 | · | -2 | -1 | 1 | -28
31 | CC1CCCN(CC(O)COc2ccc(-c3ccccc3)cc2)C1 (centres undefined) | -0.3 | -4 | -19 | -3 | -2 | -9
32 | O=C(O)C(Sc1ccncn1)c1ccccc1 (centres undefined) | 0.1 | 2 | -7 | 7 | 2 | -19
33 | Cc1cccc(NC(=O)c2ccc(S(=O)(=O)N3CC(C)OC(C)C3)cc2)n1 (centres undefined) | -0.5 | -1 | 0 | 0 | -1 | 10
34 | Cc1cc(C(=O)CSc2nnnn2C)c(C)n1-c1cccc(F)c1 | 0.3 | -8 | -2 | -6 | -8 | 11
35 | CCOc1ccc(OCC(=O)N2CCOCC2)cc1 | -0.4 | 6 | -7 | 0 | 8 | -10
36 | Nc1ccn([C@@H]2O[C@H](C(=O)N[C@H](CO)c3ccccc3)[C@@H](O)[C@H]2O)c(=O)n1 | 0.0 | · | -4 | -13 | 17 | ·
37 | Cc1ccc(-c2nc3c(c(SCC(=O)N4CCOCC4)n2)COC(C)(C)C3)cc1 | -0.4 | · | 3 | -1 | 2 | -4
38 | COc1cccc(CNC(=O)CCC2CCCN(C(=O)c3cccnc3SC)C2)c1 (centres undefined) | 0.1 | 9 | -7 | · | 6 | -14
39 | N#Cc1nc(-c2ccccc2)oc1NCc1ccco1 | -0.5 | -18 | -3 | -13 | -18 | 17
40 | CC(=O)c1ccc(NC(=O)C[n+]2ccc(N(C)C)cc2)cc1 | -0.1 | 17 | -25 | -1 | 3 | 34
41 | COc1cc(C(=O)NCc2cc(C)nc3ccccc23)cc(OC)c1OC | -1.3 | -2 | -8 | -1 | 6 | -16
42 | Cc1ccc2[nH]c(=O)c(CN(CC3CCCO3)S(=O)(=O)c3c(C)ccc4nsnc34)cc2c1 (centres undefined) | 0.9 | 8 | -4 | 5 | -1 | -6
43 | CC(=O)c1cccc(Nc2ccc(-c3ccccc3F)nn2)c1 | -1.0 | -13 | 0 | 0 | -3 | 48
44 | Cc1ccc(NC(=O)C(=O)Nc2ccc(C)cn2)nc1 | 0.3 | 26 | -9 | 2 | 1 | 7
45 | CCOc1ccc(S(=O)(=O)N2CCC(C(=O)NCc3cccnc3)CC2)cc1 | -0.2 | -15 | -4 | 2 | -1 | 43
46 | Cc1ccccc1N1CCN(CCCN2C(=O)C3CCCCN3C2=O)CC1 (centres undefined) | -1.2 | 7 | -45 | 0 | -10 | 1
47 | CC(C(=O)c1ccc(-c2ccccc2)cc1)[n+]1cccc(NC(=O)c2ccccc2)c1 (centres undefined) | -0.5 | -21 | -17 | -9 | -7 | 12
48 | COC(=O)[C@]1(C)N[C@H](CN(C)C(=O)c2ccc(F)cc2)[C@@H]2C(=O)N(Cc3ccccc3)C(=O)[C@@H]21 | 0.7 | · | -7 | 12 | -7 | -15
49 | CCOC(=O)C1CCN(C(=O)CCNC(=O)c2ccccc2OC)CC1 | -0.2 | · | 10 | -1 | 4 | -8
50 | CC/C(=N\OC(=O)c1ccc(OC(C)C)cc1)c1ccc(C)cc1 | 2.4 | 11 | -3 | 0 | 72 | -9
51 | CCOC(=O)C1=CCN(S(=O)(=O)c2ccccc2F)C1c1cccc(Cl)c1 (centres undefined) | 0.7 | · | -4 | 9 | 6 | ·
52 | O=C(c1ccccc1)c1ccc(C(=O)N2CCN(c3ccccc3Cl)CC2)cc1 | 4.0 | -8 | -1 | 0 | -2 | 22
53 | CCOC(=O)c1c(C)c(-c2ccccc2)n(CC(=O)NCCC(C)C)c1C | 0.2 | -3 | -7 | 2 | 3 | 13
54 | Cc1nc2ncnn2c(C)c1CCC(=O)N1CCN(c2ccccn2)CC1 | 0.0 | 4 | -1 | -6 | -1 | -12
55 | O=C(Nc1ccc(CN2CCOCC2)cc1)c1ccc(-c2ccc(Cl)cc2Cl)o1 | 1.4 | 21 | -6 | -5 | -13 | 11
56 | O=C(OCC(=O)N1CCCC1)c1cc(=O)c2ccccc2o1 | -1.0 | · | -10 | · | -6 | 19

Entries 46–56, quoted:
item | Compound | TRPML1 ag | TRPV1 PAM | D2 PAM | CtBP-E1A blk | Six1-Eya2 blk | TRPML1 inh
46 | Cc1ccccc1N1CCN(CCCN2C(=O)C3CCCCN3C2=O)CC1 (centres undefined) | -1.2 | 7 | -45 | 0 | -10 | 1
47 | CC(C(=O)c1ccc(-c2ccccc2)cc1)[n+]1cccc(NC(=O)c2ccccc2)c1 (centres undefined) | -0.5 | -21 | -17 | -9 | -7 | 12
48 | COC(=O)[C@]1(C)N[C@H](CN(C)C(=O)c2ccc(F)cc2)[C@@H]2C(=O)N(Cc3ccccc3)C(=O)[C@@H]21 | 0.7 | · | -7 | 12 | -7 | -15
49 | CCOC(=O)C1CCN(C(=O)CCNC(=O)c2ccccc2OC)CC1 | -0.2 | · | 10 | -1 | 4 | -8
50 | CC/C(=N\OC(=O)c1ccc(OC(C)C)cc1)c1ccc(C)cc1 | 2.4 | 11 | -3 | 0 | 72 | -9
51 | CCOC(=O)C1=CCN(S(=O)(=O)c2ccccc2F)C1c1cccc(Cl)c1 (centres undefined) | 0.7 | · | -4 | 9 | 6 | ·
52 | O=C(c1ccccc1)c1ccc(C(=O)N2CCN(c3ccccc3Cl)CC2)cc1 | 4.0 | -8 | -1 | 0 | -2 | 22
53 | CCOC(=O)c1c(C)c(-c2ccccc2)n(CC(=O)NCCC(C)C)c1C | 0.2 | -3 | -7 | 2 | 3 | 13
54 | Cc1nc2ncnn2c(C)c1CCC(=O)N1CCN(c2ccccn2)CC1 | 0.0 | 4 | -1 | -6 | -1 | -12
55 | O=C(Nc1ccc(CN2CCOCC2)cc1)c1ccc(-c2ccc(Cl)cc2Cl)o1 | 1.4 | 21 | -6 | -5 | -13 | 11
56 | O=C(OCC(=O)N1CCCC1)c1cc(=O)c2ccccc2o1 | -1.0 | · | -10 | · | -6 | 19

Additional structures follow.
item | Compound | TRPML1 ag | TRPV1 PAM | D2 PAM | CtBP-E1A blk | Six1-Eya2 blk | TRPML1 inh
57 | COC(=O)c1ccc(OC)c(CSc2nnc(COc3ccc(OC)cc3)o2)c1 | 4.0 | -8 | 0 | 13 | -3 | 12
58 | CCC(=NNS(=O)(=O)c1ccc(C)cc1)c1ccccc1 | 1.2 | · | -4 | 4 | 6 | 1
59 | Cc1ccc(CNC(=O)CCS(=O)(=O)c2cccc3nsnc23)cc1 | 0.7 | -7 | -10 | 6 | 6 | 1
60 | CCOCCCNCC(=O)Nc1ccc(S(=O)(=O)NC(C)CC)cc1 (centres undefined) | 0.2 | -5 | -6 | 7 | 0 | -10

Screening data deposited in PubChem by National Center for Advancing Translational Sciences (NCATS).
